SARS PLpro yeast: inhibitors of SARS-CoV papain-like protease in yeast; S. cerevisiae expressing SARS-CoV PLpro, growth rescue; control for the full effect not named in the record; Potency, µM (highest dose often 32.9 µM), for inactives: top-dose activity, positive = growth rescue; actives 0.19% (n = 330,000); AID 485353; active means well fitted rising curve with a large enough effect; inconclusive means small, poorly fitted or top-dose-only effect; inactive means no such curve, though single readings can be large or run the other way; further: 0% is about no effect; nearly all actives have a fitted effect of over 55% in size; growth read by luminescence after 48 h
Cruzain Triton: blocks cruzain activity in presence of Triton detergent | AID 1478 | Potency, µM, for the others: max response, negative = inhibition, hits mostly inhibitors | actives 0.43% (n = 200,000) | P25779 | purified cruzain, Z-FR-AMC fluorescence, 0.01% Triton;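 further: plate controls were neutral wells for no effect and buffer without enzyme for full effect; nearly all actives have a fitted effect of over 40% in size; top concentration of the series not given in the record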
Target sequence (P25779 123-467 limits assumed): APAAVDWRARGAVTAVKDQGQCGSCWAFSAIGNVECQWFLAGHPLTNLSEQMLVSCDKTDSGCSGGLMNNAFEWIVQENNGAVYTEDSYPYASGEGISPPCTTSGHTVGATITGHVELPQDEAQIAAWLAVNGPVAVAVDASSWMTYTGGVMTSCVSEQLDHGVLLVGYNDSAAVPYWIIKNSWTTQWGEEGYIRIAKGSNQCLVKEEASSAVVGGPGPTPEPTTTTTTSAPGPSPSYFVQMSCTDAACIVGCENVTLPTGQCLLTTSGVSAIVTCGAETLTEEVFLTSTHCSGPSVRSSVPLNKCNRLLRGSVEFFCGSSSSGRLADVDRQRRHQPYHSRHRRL
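Steps: dispense cruzain (1.5 nM final) in acetate buffer pH 5.5 with DTT and 0.01% Triton X-100; pin-transfer compounds; incubate 15 min RT; add Z-FR-AMC (2 uM final); read fluorescence every 30 s, using the 60 s intensity change.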
Lassa entry inh: blocks Lassa virus binding to or entry into cells; Lassa virus pseudotype entry inhibition, cell reporter; control for the full effect not named in the record; Potency, µM (highest dose often 37.9 µM), for inactives: at the highest dose activity change, negative = inhibition, actives largely listed as inhibitors; actives 1.2% (n = 300,000); AID 540256; active means well fitted inhibition curve with a large enough effect; inconclusive means small, poorly fitted or top-dose-only effect, or effect the other way; inactive means flat fitted curve, though single readings scatter; tested in HEK293 cells; further: on the % scale 0 is the no-effect control and ±100 the full control effect; nearly all actives have a fitted effect of over 50% in size; luciferase read-out
RE007 growth inh: less growth of the S. pombe RE007 Vpr strain; S. pombe RE007 Vpr strain, BacTiter-Glo ATP luminescence, 24 h; control for the full effect not named in the record; Potency, µM (series often up to 92.2 µM), for the others: at the top dose activity change, negative = less growth; actives 0.21% (n = 360,000); AID 651644; active = well fitted falling curve with a large enough effect; inconclusive = small, poorly fitted or top-dose-only effect; inactive = no such curve, though single readings can be large or run the other way;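 further: on the % scale 0 is the no-effect control and ±100 the full control effect; nearly all actives have a fitted effect of over 50% in size; the assay follows cell death caused by Vpr and the record does not say whether a fall means rescue or toxicity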
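Fission yeast strain RE007, carrying one chromosomally integrated HIV-1 vpr copy, was seeded at OD 0.01 in PMG+AL medium with 23 nL pinned compound. After 24 h at 30 °C and 99% humidity, viability was read by BacTiter-Glo luminescence.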
MARV entry inh: Marburg virus entry inhibition. Marburg virus pseudotyped entry inhibition, cell reporter; control for the full effect not named in the record; about a third of the inactives were read at about 46 µM. actives 1.8% (n = 300,000). Potency, µM (titrated, usually from 37.8 µM), inactives show at the top dose activity change, negative = inhibition, usual class: inhibitors; active = well fitted inhibition curve with a large enough effect; inconclusive = small, poorly fitted or top-dose-only effect, or effect the other way; inactive = flat fitted curve, though single readings scatter; tested in HEK293 cells; about a fifth of its hits are not listed in these tables; further: on the % scale 0 is the no-effect control and ±100 the full control effect; luciferase read-out
2A StopGo: lowers the luciferase signal of an FMDV 2A StopGo reporter. actives 1.2% (n = 410,000). AID 1159524. Potency, µM (doses to about 57.9 µM), without a hit: at the top dose signal change, negative = less light. human cells with a luciferase reporter of 2A StopGo recoding; control for the full effect not named in the record; active = well fitted falling curve with a large enough effect; inconclusive = small, poorly fitted or top-dose-only effect; inactive = no such curve, though single readings can be large or run the other way; tested in HEK293T cells; further: on the % scale 0 is the no-effect control and ±100 the full control effect; nearly all actives have a fitted effect of over 45% in size; luciferase light after 4 h
Cruzain inh noDet: cruzain (T. cruzi) inhibition without detergent; actives 2.3% (n = 200,000); AID 1476; purified cruzain, Z-FR-AMC fluorescence, no detergent; Potency, µM, inactives show max response, negative = inhibition, usual class: inhibitors; P25779;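 further: plate controls were enzyme without inhibitor for no effect and buffer without enzyme for full effect; nearly all actives have a fitted effect of over 40% in size; top concentration of the series not given in the record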
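Purified cruzain at 1.5 nM, pre-incubated 15 min with compound at room temperature in 100 mM sodium acetate pH 5.5, 5 mM DTT, 0.00005% Triton X-100. Reaction started with 2 uM Z-FR-AMC; AMC fluorescence increase over 60 s gives rate.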
NS1 inh: blocks influenza NS1 protein function; S. cerevisiae slowed by influenza A NS1, growth recovery by OD600; Potency, µM (titrated, usually from 46.1 µM), for the others: at the highest dose activity, positive = more growth; actives 0.4% (n = 270,000); AID 2326; active means well fitted rising curve with a large enough effect; inconclusive means small, poorly fitted or top-dose-only effect; inactive means no such curve, though single readings can be large or run the other way; further: nearly all actives have a fitted effect of over 50% in size
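Compounds were scored for reversing the slow growth caused by influenza A NS1 in S. cerevisiae, measured by optical density at 600 nm. Assay medium contained 2% galactose at pH 6.0; NS1-free yeast of the same strain were the positive control.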
Numbers without * were called inactive; ? = inconclusive; . = no result given; & = joins results of further samples; [ ] = another dose, or the depositor's remark. Unless noted, the call rests on the fitted dose curve; in most records, active means well fitted curve in the direction sought with a large enough effect; inconclusive means small, poorly fitted or top-dose-only effect, or another doubt; inactive means no such curve, though single readings can be large; an effect the other way counts as inactive or inconclusive. Potency means the concentration at half of the fitted maximal effect.

SMILES | SARS PLpro yeast | Cruzain Triton | Lassa entry inh | RE007 growth inh | MARV entry inh | 2A StopGo | Cruzain inh noDet | NS1 inh
O=C1C2C3C=CC(C4CC34)C2C(=O)N1/N=C/c1cccs1 (configuration not stated) | -30% | -7.7% | 14% | -5% | -9% | 18% | -4% | 14%
COc1ccc(NC(=O)C2CCC(CNS(=O)(=O)c3csc(C(N)=O)c3)CC2)cc1 (configuration not stated) | . | 3.4% | 8%[46.1 µM] | . | . | 14% | 4% | .
O=C(Nc1ccccc1Cl)Nc1cccc2cccnc12 | -2% | . | . | -30% | . | 54%[activator] | . | -15%
COc1ccc(NC(=O)c2ccc(OCc3c(C)noc3C)c(OC)c2)cn1 | -1% | . | 0% | 3% | 2%[46.1 µM] | -6% | . | .
Cc1ccc(C)c(N2CCN(C(=O)C3CCC(CNS(=O)(=O)c4cccs4)CC3)CC2)c1 (configuration not stated) | . | -7.0% | ? | . | ? | ? | 8% | .
COc1cc(NC(=O)Cc2ccc(OC)c(S(=O)(=O)N3CCOCC3)c2)c(OC)cc1Cl | -4% | . | -23% | -3% | 0%[46.1 µM] | -19% | . | -16%
CC(CC(=O)N1CCN(S(=O)(=O)c2ccccc2)CC1)n1cncn1 (configuration not stated) | -1% | . | 20%[46.1 µM] | 2% | 7%[46.1 µM] | -3% | . | -8%
CCC1(c2ccccc2)NC(=O)N(CC(=O)Nc2cc(S(=O)(=O)N3CCOCC3)ccc2OC(C)C)C1=O (configuration not stated) | 1% | . | -2% | 8% | 2% | 25% | . | .
Cc1nn(CCCC(=O)NCc2ccc(F)cc2)c(C)c1[N+](=O)[O-] | 3% | -4.2% | -1% | 21% | 13% | 2% | 9% | 11%
Cc1cc(OCC(O)CN2CCOCC2)cc(C)c1Cl (configuration not stated) | 0% | . | -7% | 11% | -31% | -17% | . | -11%
COCCNC(=O)NC(=O)COC(=O)c1cccn1C | 1% | . | -21% | 15% | -4%[46.1 µM] | -3% | . | .
Cc1ccc(Nc2nnc(SCC(=O)Nc3cc(C(=O)O)ccc3C)s2)c(C)c1 | 0% | . | . | 21% | . | 6% | . | 6%
Cc1cccc(C(=O)N[C@H](C(=O)Nc2nccs2)C(C)C)c1 | -16% | 7.2% | 3% | -6% | 5% | -14% | -10% | -16%
CCOc1ccc(Cc2nn[nH]n2)cc1 | 7% | 5.2% | 10% | 44% | -28% | -16% | 5% | -1%
Cc1ccc(OCc2cc(C(=O)N(C)CC3CCOCC3)no2)cc1C | -8% | . | . | 1% | . | 25% | . | -3%
CCN(CC)c1ccc(NC(=O)C2CC(=O)N(Cc3ccccc3)C2)cc1 (configuration not stated) | -1% | . | 6% | 5% | -3%[46.1 µM] | -1% | . | .
CCOc1cccc2sc(N3CCN(C(=O)c4ccc5ncsc5c4)CC3)nc12 | -4% | . | 18% | 0% | ? | ? | . | .
Cc1ccc(C(=O)CN2C(=O)NC3(CCc4ccccc43)C2=O)c(C)c1 (configuration not stated) | -3% | . | 3% | 6% | 25%[46.1 µM] | -8% | . | .
Cc1ccccc1OCCN1C(=O)NC2(CCc3ccccc32)C1=O (configuration not stated) | 0% | 0.4% | 11% | -8% | -10% | -8% | -5% | -36%
CC1C(=O)C(C)C(c2cc(Br)ccc2O)NC1c1cc(Br)ccc1O (configuration not stated) | . | . | 4%[46.1 µM] | -14% | ? | ? | . | .
Cc1csc2ncnc(N3CCN(S(=O)(=O)c4cccc(C(F)(F)F)c4)CC3)c12 | ? | . | ? | 4% | ? | ? | . | -28%
CC(=O)c1c(C)[nH]c(C(=O)OCc2ccc(F)cc2Cl)c1C | 0% | . | -16% | 1% | ? | -22% | . | .
O=C(CSc1nccn1-c1ccc(F)cc1)Nc1ccc2c(c1)OCO2 | -2% | -0.3% | -1% | 10% | -21% | -25% | -2% | -21%
COc1cc2c(cc1OC)C(C(=O)Nc1ccc3c(c1)OCCO3)C1c3ccccc3CCN1C2=O (configuration not stated) | 5% | 3.2% | -19% | -9% | 1% | -13% | ? | -44%
CC(C)(CO)Nc1nc(Nc2ccccc2)nc(Nc2ccccc2)n1 | 3% | -14% | 0% | -14% | -17% | -23% | -2% | -9%
O=C(Nc1ccc2c(c1)CCCN2C(=O)c1ccco1)c1cc([N+](=O)[O-])ccc1Cl | 2% | . | 2.5µM* | -12% | ? | ? | . | .
O=C(Nc1ccccc1N1CCOCC1)c1cccnc1Cl | -1% | . | 1% | -6% | 0%[46.1 µM] | 9% | . | .
O=C(Oc1ccc2c(c1)OCO2)c1ccncc1 | -5% | 0.6% | 5% | -3% | 6% | . | 2% | -4%
CN(C)c1ccc([C@@H]2[C@@H]([N+](=O)[O-])[C@H]3C=Cc4ccccc4N3[C@H]2C(=O)c2ccc(Cl)cc2)cc1 | 4% | -5.2% | -4% | ? | -14% | -24% | 7.9µM* | 23%
O=C(Oc1ccc2c(c1)CCC2)N1CCOCC1 | 4% | -0.7% | ? | ? | ? | 41%[activator] | 7% | 3%
CCC(=O)OC1(c2ccccc2)CCN(C)CC1C (configuration not stated) | -1% | . | 10% | -2% | 24%&24%[46.1 µM] | -1% | . | 0%
CCC1=C(c2ccc(OC)cc2)CCC(C(=O)O)C1C (configuration not stated) | . | . | 14%[46.1 µM] | 2% | 20%[46.1 µM] | -9% | . | .
NS(=O)(=O)c1ccc(CCNC(=O)c2cc(-c3ccccn3)nc3ccc(Br)cc23)cc1 | -3% | . | -16% | 7% | ? | ? | . | .
O=C(c1cccs1)N1CCC(c2nc3c(nnn3Cc3c(Cl)cccc3Cl)c(=O)[nH]2)CC1 | 1% | . | . | -17% | 1%[46.1 µM] | ? | . | 2%
CC(=O)NC(CCS(C)(=O)=O)C(=O)Nc1c(C)cccc1C (configuration not stated) | 5% | 0.4% | 2% | 6% | -2% | -10% | -2% | -6%
CC(C(=O)NC(=O)NC1CCCCC1)N1CCN(c2ccc(O)cc2)CC1 (configuration not stated) | 0% | . | 3% | -8% | 21% | -23% | . | .
CN1CCN(c2c([N+](=O)[O-])cnc3ccccc23)CC1 | . | . | 10% | -23% | ? | 9% | . | .
O=C(CN1CC(=O)Oc2ccccc21)OCC(=O)c1cccc(Br)c1 | -31% | -13% | -3% | ? | 7% | -18% | -2% | -90%
O=C(CSC1CC(=O)N(c2ccc(C(=O)O)cc2)C1=O)Nc1ccc(Cl)cc1 (configuration not stated) | 0% | . | 6% | 22% | 1% | -9% | . | 0%
Cc1onc(-c2ccccc2Cl)c1C(=O)OCc1nnc(-c2ccccc2)o1 | -3% | . | 1% | 0% | ? | 5% | . | .
CCC(=O)Nc1nc2c(c(=O)[nH]1)CCCC2 | -5% | . | -16% | 44% | 3% | 4% | . | .
Cc1cccc(NC(=O)c2ccc3c(c2)C(=O)N(c2ccccc2C)C3=O)n1 | 2% | . | -1% | -17% | 4% | 30%[activator] | . | .
CC(C(=O)N1CCOCCOCCOCCOCCOCC1)N1C(=O)c2ccccc2C1=O (configuration not stated) | 1% | . | ? | 12% | 13%[46.1 µM] | -12% | . | .
Cc1cc2c(cc1S(=O)(=O)N(C)C1CCCCC1)OCC(=O)N2 | ? | . | . | 0% | . | 0% | . | 12%
Cc1ccc(OCC(=O)Oc2ccc(C(C)C)cc2)cc1 | -2% | . | 4% | 4% | 11% | 3% | . | 6%
COc1cccc(CNC(=O)CCC2CCCN(Cc3cc4ccccc4o3)C2)c1 (configuration not stated) | 0% | . | 3% | -11% | ? | -24% | . | 0%
COCCC(=O)N1CCC(Oc2ccc(C(=O)N3CCCCC3CCO)cc2)CC1 (configuration not stated) | -6% | . | -9% | -4% | ? | 16% | . | 12%
O=C(CSc1nnc(NC(=O)c2ccccc2F)s1)NCc1ccc(F)cc1 | 0% | . | -15%[46.1 µM] | -2% | ? | 28% | . | 7%
Cc1ccc(NC(=S)N(CCCN2CCCC2)Cc2cccn2Cc2ccc(Cl)cc2)cc1 | -3% | . | ? | -7% | ? | 5% | . | .
CCOC(=O)c1c(NC(=O)CN2C(=O)NC3(CCC(C)CC3)C2=O)sc(C)c1-c1ccc(C)cc1 (configuration not stated) | 8% | 1.9% | ? | -2% | -1% | -6% | -24% | ?
CN(C)S(=O)(=O)c1ccc(NC(=O)c2ccc([N+](=O)[O-])cc2)cc1 | 6% | . | . | -12% | . | -41% | . | -2%
CCC1(c2ccccc2)NC(=O)N(CC(=O)N(C)CC(=O)Nc2cccc(OC)c2)C1=O (configuration not stated) | 4% | . | 5% | 8% | ? | -12% | . | .
Fc1ccc(C2CC(c3ccccc3)Nc3ncnn32)cc1 (configuration not stated) | -9% | 3.2% | . | 17% | 0% | -6% | -4% | -1%
COc1ccc(CCNC(=O)Cn2c(=O)cnc3ccccc32)cc1 | 6% | -0.3% | ? | -6% | ? | -24% | -1% | 1%
CCOC(=O)c1c(CSc2nc(C)cc(C)c2C#N)n(C)c2cc(Br)c(OC(C)=O)cc12 | -21% | -3.3% | ? | -2% | -3% | ? | -8% | 9%
C/C(=N\NC(=O)C(O)c1ccccc1)c1ccc(Br)s1 (configuration not stated) | 1% | . | . | 2% | . | 61%[activator] | . | 1%
Cc1cc(C(=O)Nc2c(F)cc(F)cc2Br)n(-c2ccccc2)n1 | -2% | . | 1%[46.1 µM] | 3% | ? | 2% | . | -2%
Cc1ccc(C(=O)COC(=O)c2ccco2)cc1C | -2% | . | . | -14% | . | 78%[activator] | . | -13%

Screening results (PubChem BioAssay)
